Source: PubChem (National Center for Advancing Translational Sciences (NCATS))
Marburg entry – inhibitors of Marburg virus binding or entry into cells; Marburg virus pseudotype entry/binding inhibition, cell-based; control for the full effect not named in the record; many of its hits are not listed in these tables; AID 720532; Potency, µM (titrated, usually from 49.2 µM), inactives show at the highest dose activity change, negative = inhibition, usual class: inhibitors; hit rate 6.5% among 18,000; active means well fitted inhibition curve with a large enough effect; inconclusive means small, poorly fitted or top-dose-only effect; inactive means no such curve, though single readings can be large or run the other way; tested in HEK293 cells; further: luciferase read-out
Lassa entry – Lassa virus entry inhibition. hit rate 4.1% among 18,000. Potency, µM (highest dose often 49.2 µM), inactives show at the top dose activity change, negative = inhibition, hits mostly inhibitors. Lassa virus pseudotyped entry inhibition, cell-based qHTS; control for the full effect not named in the record; many of its hits are not listed in these tables. AID 720533; active = well fitted inhibition curve with a large enough effect; inconclusive = small, poorly fitted or top-dose-only effect; inactive = no such curve, though single readings can be large or run the other way; tested in HEK293 cells; further: luciferase read-out
* marks the source's active call; other numbers are inactive results; ? = inconclusive; · = no result given; & = joins results of further samples; ! = not confirmed by another sample; [ ] = dose if it differs, or a comment. On the % scale 0 is the no-effect control and ±100 the full control effect; potency means the concentration at half of the fitted maximal effect. A portion of the library, so the mix of outcomes need not match the whole.

SMILES	Marburg entry	Lassa entry
CC(C)=CCCC1(C)C=Cc2c(O)c3c(c(CC=C(C)C)c2O1)OC12C(=CCCC1C(C)(C)O[C@@]2(C/C=C(\C)C(=O)O)C(=O)O)C3=O (stereo not given in full)	-6%	0%
COc1ccc(-c2c(C)cc3oc(=O)cc(-c4ccccc4)c3c2C)cc1	?	?
COc1cc2oc(=O)cc(-c3ccc(-c4ccc(F)c(Cl)c4)cc3)c2c(OC)c1OC	21%	3%
C=C(C(C)=O)C(O)C=Cc1ccco1 (stereo not given)	3%[8.59 µM]	0%[8.59 µM]
CCCCC[C@H](O)/C=C/C1=C(CCCCCCC(=O)O)C(=O)CC1	2%&-19%	-1%&1%
C=CCC1CCCC(=O)N2CCCC12 (stereo not given)	2%[107 µM]	-11%[107 µM]
Cc1c(N(C)CS(=O)(=O)O)c(=O)n(-c2ccccc2)n1C	-3%[17.8 µM]	1%[17.8 µM]
O=C1CCCC1C(O)c1ccc2ccccc2c1 (stereo not given)	?	-1%
CC1(C)OC(=O)C=C[C@@]2(C)C1C[C@@H](O)[C@]1(C)C2CC[C@@]2(C)C(c3ccoc3)OC(=O)[C@H]3O[C@]321 (stereo not given in full)	-26%	-7%
CC(C)(C)OC(=O)N1CCCC(C(=O)Nc2cccc(C(=O)N3CCOCC3)c2)C1 (stereo not given)	28%	40%[activator]
CN1CCN(c2ccnc(-c3cccc(NS(C)(=O)=O)c3)n2)CC1	-11%	-17%
COC(=O)C1=C(C)NC(C)=C([N+](=O)[O-])[C@H]1c1ccccc1C(F)(F)F	-11%	-18%
CC(C)[C@H](NC(=O)[C@@H]1CSSC[C@H](NC(=O)[C@H](CC(=O)O)NC(=O)[C@H](C)NC(=O)[C@@H](NC(=O)CNC(=O)[C@H](C)N)[C@@H](C)O)C(=O)N[C@@H](Cc2ccccc2)C(=O)N[C@@H](Cc2c[nH]c3ccccc23)C(=O)N[C@@H](CCCCN)C(=O)N[C@@H](Cc2ccc(O)cc2)C(=O)N1)C(=O)O	6%	-5%
C[C@@H]1CC=C[C@@H]2[C@H]1C(=O)N(Cc1ccccc1)[C@H]2c1cccc(C#Cc2ccccc2)c1	-21%	-12%
COc1cccc(CN2CCC3(CCC(CNC(=O)c4ccco4)O3)CC2)c1OC (stereo not given)	-7%	-6%
CN1c2ccccc2C(NCCCCCCC(=O)O)c2ccc(Cl)cc2S1(=O)=O (stereo not given)	8%	-3%
C[C@@H]1C=CCCO[C@]12C(=O)N(Cc1ccccc1C(F)(F)F)c1ccccc12	-12%[8.59 µM]	11%[8.59 µM]
O=S1(=O)c2ccc(Br)cc2OC[C@H](c2ccccc2)N1Cc1ccccc1	-19%	·
N[C@@H](CCCCP(=O)(O)O)C(=O)O	8%	-1%
O=C(O)C1(O)C[C@H](O)C(O)[C@@H](O)C1 (stereo not given in full)	-2%	3%
CN(Cc1ccccc1)S(=O)(=O)c1ccccc1Br	14%	-18%
C=C[C@H]1CN2CC[C@H]1C[C@H]2[C@H](OC(=O)OCC)c1ccnc2ccc(OC)cc12	?	-10%
CCOC(=O)C1Oc2ccccc2C(C(=O)OC)=C1C(=O)OC (stereo not given)	11%	-5%
CN(C)c1ccc(-c2nc(NC3CCNCC3)c3ccccc3n2)cc1	14µM*	-28%
CCOC(=O)/C=C(C)/C=C/C[C@@H](C)CCCC(C)C	2%	-4%
Cc1ccc(-c2ccc(CN3C(C)C(=O)N(Cc4cn(Cc5ccco5)nn4)CCS3(=O)=O)cc2)c(C)c1 (stereo not given)	?	·
O=C(c1n[nH]c2c1CCCC2)N1CCOc2ccc(C(O)C(c3ccccc3)c3ccccc3)cc2C1 (stereo not given)	?	?
COc1cc2c(c(OC)c1OC)C1(c3ccccc3)CCCCCC1[C@@H]2NC(=O)C(F)(F)F (stereo not given in full)	-15%[8.59 µM]	·
COc1ccccc1CNS(=O)(=O)c1ccc(F)cc1Br	26%	-12%
COc1cc2c(c(OC)c1OC)-c1c(cc3c(c1OC)OCO3)CC(C)C(C)(O)C2OC(=O)c1ccccc1 (stereo not given)	13%	-16%
CCCCC(CC)C/C=C1\CC(C(=O)OCC)Oc2ccccc21 (stereo not given) (tested in a mixture with another compound)	6%	1%
CN(C)CCC(c1ccccc1)c1ccccn1 (stereo not given)	?	-12%&5%
CC(C)c1c(C(=O)N(C)CC2CCCN(C)C2)cnn1-c1nccc(-c2cccs2)n1 (stereo not given)	-10%	-8%
CC1=C[C@@H](COCc2ccccc2)O[C@@]2(C1)C(=O)N(Cc1ccc(Br)cc1)c1ccccc12	4%[8.59 µM]	-10%[8.59 µM]
Cc1ccc(S(=O)(=O)n2c3ccccc3c3nnc(C(=O)c4ccccc4)nc32)cc1	61%[activator][8.59 µM]	57%[activator][8.59 µM]
Cc1ccc(CNc2ncnc3sc(C(=O)N4CCC[C@H]4C(N)=O)c(C)c23)o1	-10%	-9%

Some of these compounds in order of SMILES length, descending:
SMILES	Marburg entry	Lassa entry
O=C(c1n[nH]c2c1CCCC2)N1CCOc2ccc(C(O)C(c3ccccc3)c3ccccc3)cc2C1 (stereo not given)	?	?
Cc1ccc(CNc2ncnc3sc(C(=O)N4CCC[C@H]4C(N)=O)c(C)c23)o1	-10%	-9%
CCCCC(CC)C/C=C1\CC(C(=O)OCC)Oc2ccccc21 (stereo not given) (tested in a mixture with another compound)	6%	1%

The main list resumes with the three entries that preceded the break.
SMILES	Marburg entry	Lassa entry
CC1=C[C@@H](COCc2ccccc2)O[C@@]2(C1)C(=O)N(Cc1ccc(Br)cc1)c1ccccc12	4%[8.59 µM]	-10%[8.59 µM]
Cc1ccc(S(=O)(=O)n2c3ccccc3c3nnc(C(=O)c4ccccc4)nc32)cc1	61%[activator][8.59 µM]	57%[activator][8.59 µM]
Cc1ccc(CNc2ncnc3sc(C(=O)N4CCC[C@H]4C(N)=O)c(C)c23)o1	-10%	-9%
CCCS(=O)(=O)NCc1c(C)ncc2c1CCN(C(=O)c1ccc(Cl)cc1)C2	?	-1%
Cc1nc(NCc2cnn(C)c2)sc1-c1ccn(-c2cccc(F)c2)n1	-1%	-11%
COC(=O)CCCC1=CC2=C(c3ccccc3)C(=O)C(C)(OC(=O)C3CCCC3)C(=O)C2=CN1Cc1ccco1 (stereo not given)	?	9%[8.59 µM]
CCCCC1=CC2=C(OC(C)=O)C(=O)C(C)(OC(=O)C3CCCC3)C(=O)C2=CO1 (stereo not given)	0%	-2%
CCn1c(-c2nonc2N)nc2cnc(Oc3cccc(NC(=O)c4ccc(N(C)C)cc4)c3)cc21	16%	18%
CC[C@@H]1OC(=O)[C@H](C)[C@H](O[C@@H]2C[C@](C)(OC)[C@H](O)[C@H](C)O2)[C@H](C)[C@H](O[C@@H]2O[C@@H](C)C[C@@H](N(C)C)[C@@H]2O)[C@](C)(O)C[C@H](C)C(=O)[C@H](C)[C@H](O)[C@]1(C)O	1%[17.8 µM]	22%[17.8 µM]
C[C@@H](N)Cn1ccc2cc(F)c(Cl)cc21	?	-15%
CN(C)c1ccc(-c2nc(N3CCNCC3)c3ccccc3n2)cc1	?	-29%
COC(=O)CCC(C)C1CCC2C3CC[C@H]4CC(O)CC[C@@]4(C)C3CC(O)[C@]12C (stereo not given in full)	-13%	-10%
Cc1ccc(-c2ccc(CN3C(C)C(=O)N(Cc4cn(CC5CCCCC5)nn4)CCS3(=O)=O)cc2)cc1 (stereo not given)	?	-5%
COc1ccccc1C1CN(Cc2c(C)nn(C)c2Cl)Cc2ccccc2O1 (stereo not given)	?	-1%
O=c1ccn([C@@H]2O[C@H](COP(=O)(O)OP(=O)(O)OP(=O)(O)O)[C@@H](O)[C@H]2O)c(=O)[nH]1	1%	-14%
COC1(C)CC(c2ccccc2)c2c(c3ccccc3oc2=O)O1 (stereo not given)	3%	5%
CC(Nc1oc(-c2ccccc2)nc1-c1ccc(C(F)(F)F)cc1)c1ccccc1 (stereo not given)	19%	24%
Cn1cc(C2=C(c3ccc(Cl)cc3Cl)C(=O)NC2=O)c2ccccc21	8%	0%
CC1CC[C@@]2(OC1)OC1CC3C4CC=C5CC(O)CC[C@@]5(C)C4CC[C@]3(C)C1C2C (stereo not given in full)	-19%	-13%
COc1ccc(C2CC(=O)Oc3cc(C)cc(C)c32)cc1 (stereo not given)	-26%	-28%
C[C@H]1[C@@H](OC(=O)CCC(=O)O)O[C@@H]2OC3(C)CC[C@H]4[C@H](C)CC[C@@H]1[C@@]24OO3	?	?
C=C[C@]1(C)C[C@@H](OC(=O)CSC(C)(C)CNC(=O)[C@H](N)C(C)C)[C@]2(C)[C@H](C)CC[C@]3(CCC(=O)[C@H]32)[C@@H](C)[C@@H]1O	13µM*	0%
O=C(O)c1cc(=O)c2cccc(O)c2[nH]1	26%&4%	-9%&-1%
COc1ccccc1N1CCN(CCCCNC(=O)c2ccc(-c3ccc(C(C)=O)cc3)cc2)CC1	?	11%&5%
COCOCCn1cc(CN2CCS(=O)(=O)N(Cc3ccc(-c4ccc(Cl)nc4)cc3)C(C)C2=O)nn1 (stereo not given)	-4%	-12%
CCCCCCN1CCN(C2CN(Cc3ccccc3)S(=O)(=O)C2)CC1 (stereo not given)	7%	-9%
CC(=O)O[C@H]1C[C@H](O[C@H]2[C@@H](O)C[C@H](O[C@H]3[C@@H](O)C[C@H](O[C@H]4CC[C@@]5(C)[C@H](CC[C@@H]6[C@@H]5C[C@@H](O)[C@]5(C)[C@@H](C7=CC(=O)OC7)CC[C@]65O)C4)O[C@@H]3C)O[C@@H]2C)O[C@H](C)[C@H]1O[C@@H]1O[C@H](CO)[C@@H](O)[C@H](O)[C@H]1O	?	0.05µM*

A different layout for some results above:
COc1ccccc1N1CCN(CCCCNC(=O)c2ccc(-c3ccc(C(C)=O)cc3)cc2)CC1
  Marburg entry = ? | Lassa entry = 11%&5%
COCOCCn1cc(CN2CCS(=O)(=O)N(Cc3ccc(-c4ccc(Cl)nc4)cc3)C(C)C2=O)nn1 (stereo not given)
  Marburg entry = -4% | Lassa entry = -12%

Next results follow:
SMILES	Marburg entry	Lassa entry
C[N+]1([O-])[C@@H]2CC[C@H]1CC(OC(=O)C(CO)c1ccccc1)C2 (stereo not given in full)	0%[17.8 µM]	-1%[17.8 µM]
O=S1(=O)N[C@@H](Cc2ccccc2)COc2cccc(NCCCN3CCOCC3)c21	?	6%
C=CCOCCC=C1c2ccccc2[C@@H](OC)[C@@H]1C	-8%[8.59 µM]	-2%[8.59 µM]
CC(C)(C)Nc1oc(-c2ccccc2)nc1C=Cc1ccccc1	4%[8.59 µM]	-24%[8.59 µM]
COCC(=O)Nc1cc(C(=O)N2CCc3c(Cl)cccc3C2)c2c(c1)nc(-c1ccncc1)n2C	-11%	7%
N[C@H](C(=O)O)[C@H](O)C(=O)O	14µM*!	?
CCOC(=O)OC[C@H]1O[C@H](c2ccc(C(C)=O)cc2)C=C[C@H]1Oc1ccc(-c2ccccc2)cc1	3%[8.59 µM]	·
Cc1o[nH]c(=O)c1CC[C@H](N)C(=O)O	10%	4%
CO[C@H](C1CCCCC1)[C@H](C)C=CCC(=O)OCCCc1ccccc1	5%[8.59 µM]	·
C=C(C)[C@]12C[C@@H](C)[C@@]34OC(Cc5ccccc5)(O[C@@H]1[C@@H]3C=C(COC(=O)Cc1cc(I)c(O)c(OC)c1)C[C@]1(O)C(=O)C(C)=C[C@@H]41)O2	13µM*	18µM*
Cc1cc2c(c(=O)n1Cc1ccccc1)[C@H]1O[C@](c3ccsc3)(Cc3cc(C#N)ccc31)O2	1%[8.59 µM]	-18%[8.59 µM]
Cc1cc(-c2cc(F)cc3c2OC(CNC(=O)CCn2cncn2)C3)ccc1F (stereo not given)	-12%	0%
Nc1nc(-c2ccccn2)c(-c2ccc3ncccc3n2)s1	43%[activator]	48%[activator]
CCCCCCCCCCCCC(C(=O)O)C(C)C(=O)O (stereo not given)	9%	2%
CC(C)(C)NC[C@@H](O)COc1cccc2[nH]c(C#N)cc12	2%	-3%
COc1cccc(-c2cc(NCc3cccs3)ncn2)c1	61%[activator]	38%[activator]
CC1(C)O[C@@H](C(O)(c2cc(C(F)(F)F)cc(C(F)(F)F)c2)c2cc(C(F)(F)F)cc(C(F)(F)F)c2)[C@H](C(O)(c2cc(C(F)(F)F)cc(C(F)(F)F)c2)c2cc(C(F)(F)F)cc(C(F)(F)F)c2)O1	-9%[8.59 µM]	-3%[8.59 µM]
CS(=O)(=O)Nc1cccc(-c2ccc3c(NC(=O)C4CC4)n[nH]c3c2)c1	3.5µM*	·
COC(=O)CCCC1=CC2=CC(=O)C(C)(OC(=O)c3cccs3)C(=O)C2=CN1CCCOC(C)C (stereo not given)	37%[8.59 µM]	-16%[8.59 µM]
O=C(OCC1(COC(=O)c2cccnc2)CCCC(COC(=O)c2cccnc2)(COC(=O)c2cccnc2)C1O)c1cccnc1	5%	-14%
COC(=O)c1ccc(CN2C(=O)[C@]3(OCCC=C[C@@H]3C)c3ccccc32)cc1	13%[8.59 µM]	-1%[8.59 µM]
COc1ccc(CNS(=O)(=O)c2ccccc2Br)c(OC)c1	18%	13%
Cc1cc2c(c(-c3cnccn3)c1)OC(CNC(=O)c1cc(C(C)C)[nH]n1)C2 (stereo not given)	3%	2%
CCOC(=O)C1Oc2ccccc2C(c2ccccc2)=C1C(C)=O (stereo not given)	-10%	3%
O=C1CCCC=C1C(O)COCc1ccccc1 (stereo not given)	3%[8.59 µM]	-25%[8.59 µM]
